LANA-nucl inh: LANA-nucleosome interaction inhibition | FITC-LANA1-23 / chicken nucleosome fluorescence polarization; hits give low values | z-score (concentration not given with the values) | hit rate 0.3% among 51,000 | AID 720717;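 active means both repeat wells score below -2 in polarization z-score versus plate sample wells, excluding overly bright wells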;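 further: 100 nL library stock added to about 30 µL; numbers are from one replicate; some results filed as inactive read as strong as hits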
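Material: Purified chicken nucleosomes with FITC-labelled LANA N-terminal peptide (1-23) | Reagent: 50 nM FITC-LANA1-23 probe | Medium: TEN-BT buffer, pH 7.5 | Times: 10–45 min incubation at room temperature | Detection: Fluorescence polarization | Replication: Duplicates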
Ab BasE inh: BasE siderophore biosynthesis inhibition; purified BasE, fluorescence polarization binding displacement; inhibition, % (test concentration not listed); hit rate 0.1% among 84,000; AID 485350;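 active means both replicates above 25% with normal brightness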;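 further: 0% = negative plate control signal and 100% = positive plate control signal; stock transfer was 100 nL into about 30 µL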
The depositor's hits bear a star; nt = not tested or not shown. An excerpt; the hit share may differ from the screen's.

Start of the data: the first 6 compounds, ahead of the listing:
Every second line gives: LANA-nucl inh	Ab BasE inh
COC(=O)C1Cc2ccccc2CN1CN1C(=O)c2cc(Cl)c(Cl)cc2C1=O (configuration not stated)
    nt	0.5
Cc1ccc2oc(=O)c3cnn(CC(=O)N4CCCCCC4)c3c2c1
    -0.045	2.1
Cc1cc(C)n(CC(=O)N2CCCC2)c(=O)c1C#N
    -0.67	1.2
CSCCNC(=O)c1cccc(Cl)c1
    1.2	-1.3
O=C(NCCc1ccc2c(c1)OCCO2)c1ccncc1
    nt	-0.5
CC1(C)CC2CC(C)(CN2S(=O)(=O)c2ccc(Cl)s2)C1 (configuration not stated)
    nt	1.9

Results, from the start:
Every second line gives: LANA-nucl inh	Ab BasE inh
COC(=O)C1Cc2ccccc2CN1CN1C(=O)c2cc(Cl)c(Cl)cc2C1=O (configuration not stated)
    nt	0.5
Cc1ccc2oc(=O)c3cnn(CC(=O)N4CCCCCC4)c3c2c1
    -0.045	2.1
Cc1cc(C)n(CC(=O)N2CCCC2)c(=O)c1C#N
    -0.67	1.2
CSCCNC(=O)c1cccc(Cl)c1
    1.2	-1.3
O=C(NCCc1ccc2c(c1)OCCO2)c1ccncc1
    nt	-0.5
CC1(C)CC2CC(C)(CN2S(=O)(=O)c2ccc(Cl)s2)C1 (configuration not stated)
    nt	1.9
CCNc1nc(OCC(F)(F)F)nc(N(c2ccccc2)c2ccccc2)n1
    0.54	1.8
CC1(C)OC(=O)C=C(c2ccc(Cl)cc2)O1
    nt	0.5
O=C1Nc2ccccc2C12Nc1ccccc1S2 (configuration not stated)
    1.1	2.1
O=C(OC/C=C/c1ccccc1)c1cccc(-n2cnnn2)c1
    nt	0.9

Structures listed so far that contain a carbonyl joined to an NH by a bond outside any ring (two):
Every second line gives: LANA-nucl inh	Ab BasE inh
CSCCNC(=O)c1cccc(Cl)c1
    1.2	-1.3
O=C(NCCc1ccc2c(c1)OCCO2)c1ccncc1
    nt	-0.5

More structures
Every second line gives: LANA-nucl inh	Ab BasE inh
CCOC(=O)c1cc(COc2c(Cl)cccc2Cl)on1
    nt	0.9
Cc1ccc(OC(=O)c2cccnc2)cc1
    2.2	0.2
NC(=O)C1CCCN1c1c(F)c(F)c(C(=O)c2ccccc2)c(F)c1F (configuration not stated)
    nt	2.8
CCOc1ccc(NC(=O)C2CCCO2)cc1 (configuration not stated)
    nt	4.3
O=C(COC(=O)c1cnccn1)NCc1ccccc1
    nt	-0.6
CC(CNC(=O)C1CCCN(C(=O)c2cc3sccc3n2C)C1)c1ccccc1 (configuration not stated)
    0.4	-0.1
O=C(COc1ccc(C(F)(F)F)cc1)c1ccc2c(c1)OCCO2
    nt	3.0
CC1(C)CC(=O)CC(=Nc2ccc(C(=O)O)cc2)C1
    0.4	3.0
O=C(Cc1cc(=O)[nH]c(=O)[nH]1)NC1CCCC1
    -0.4	0.7
CC(C)CC1NC(=S)N(Cc2ccccc2)C1=O (configuration not stated)
    nt	3.4
CCCNC(=O)C1CCN(C(=O)c2ccc(-n3ccc4ccccc43)s2)CC1
    0.76	-0.7
COc1ccccc1N/C=C/C(=O)c1ccccc1
    -0.39	3.0
O=C(COc1ncnc2ccccc12)NC(=O)NC1CCCCC1
    nt	-1.4
CCOC(=O)CN1c2ccccc2NC1C(C#N)c1ccc(OC)cc1 (configuration not stated)
    nt	-0.5
Cc1cccc(NC(=O)c2cccc(C)c2)c1
    -0.085	-2.1
N#Cc1ccccc1NCC(=O)N1CCN(S(=O)(=O)c2ccccc2)CC1
    nt	1.0
CCOC(=O)c1cnc2c(c(C3CC3)nn2C)c1N1CCCCC1
    0.078	1.1
CNC(=S)N(Cc1ccco1)C1CC(=O)N(c2ccccc2)C1=O (configuration not stated)
    0.12	1.9
COc1ccc(C2SC(C)C(=O)N2CCCn2ccnc2)cc1OC (configuration not stated)
    nt	0.0
CC(C)c1ccc(NC(=O)/C=C/c2ccco2)cc1
    -0.11	-1.9
N#CCc1c(C#N)c(N)nc(N2CCN(S(=O)(=O)c3ccccc3)CC2)c1C#N
    nt	-8.0
C/C(O)=C(\C#N)c1nc2ccccc2[nH]1
    nt	3.4
C=CCN(CC=C)C(=O)C1CCN(S(=O)(=O)c2ccc(-n3cnnn3)cc2)CC1
    -0.59	-1.2
CCSc1nc2sc3c(c2c(=O)n1CC1CCCO1)CCC3 (configuration not stated)
    nt	-0.4
COC(=O)c1scc(S(C)(=O)=O)c1N=CN(C)C
    nt	0.3
Cc1c2cnn(-c3ccccc3)c(=O)c2c(C)n1CCCC(=O)NCc1ccccn1
    0.99	-2.9
CC(C)(C)/C(O)=C/c1nc2cc(Cl)ccc2oc1=O
    0.042	1.2
O=C1/C(=C/c2c(NCC3CCCO3)nc3ccccn3c2=O)SC(=S)N1C1CCCCC1 (configuration not stated)
    nt	-9.9
O=C(CC12CC3CC(CC(C3)C1)C2)NCc1ccc2c(c1)OCO2
    nt	-0.2
Cc1cccc(CN2C(=O)/C(=C\c3ccc(C(=O)N4CCN(C(=O)c5ccco5)CC4)cc3)Oc3ccccc32)c1
    0.52	1.4
CC(=O)Nc1ccc(C)c(NC(=S)Nc2ccc(Cl)c(Cl)c2)c1
    nt	2.5
O=C1NC2(CCc3ccccc32)C(=O)N1Cc1ncc(-c2ccccc2)o1 (configuration not stated)
    nt	4.4
Cc1onc(-c2ccccc2)c1C(=O)N1CCCN2C(=O)c3ccccc3C21 (configuration not stated)
    nt	-0.1
CCOc1ccccc1C(=O)N[C@H](C(=O)Nc1c(N)nc(N)n(C)c1=O)C(C)C
    nt	1.3
CC(=O)Nc1ccc(S(=O)(=O)n2cnc3cc(C)c(C)cc32)cc1
    0.15	-0.6
Cc1cc(C(=O)N2CCN(Cc3ccc4c(c3)OCO4)CC2)nn1C
    -0.17	-1.5
CCc1ccc(NC(=O)CCCn2nc(CC)n3c(cc4occc43)c2=O)cc1
    -1.4	-3.9
O=C(NCCS(=O)(=O)Cc1ccc(F)cc1)c1c(F)cccc1Cl
    nt	0.3
C=CCn1c(SCC(=O)OCC)nnc1C(C)C
    0.041	-0.6
Nc1ccc(-c2nc3ccccc3n2CCCOc2ccccc2)cc1
    nt	-0.1
COCCOC(=O)C1=C(C)NC(=S)NC1c1ccc(C)c(OC)c1 (configuration not stated)
    -1.3	-1.0
Cc1cc(C(F)(F)F)n2nc(-c3ccccc3)cc2n1
    0.013	-2.1
CCOC(=O)c1cc(C(=O)O)nn1C
    -0.023	0.3
CN(C)S(=O)(=O)c1ccc(N2CCCC2)c(C(=O)NCc2ccccc2)c1
    nt	-0.9
O=C1C(c2ccccc2)NC(=S)N1C1CCCCC1 (configuration not stated)
    0.22	2.1
C=CCN=C(N)SCc1nc2ccccc2c(=O)[nH]1
    nt	-6.1
CCCCC1=NN2C(=N)/C(=C\c3cccn3-c3ccc(C)cc3C)C(=O)N=C2S1
    -1.2	-4.2
CCC(C)NC(=O)Cn1ncc2c(=O)oc3ccc(C)cc3c21 (configuration not stated)
    -0.17	1.4
CN1CCC(N(C)Cc2cc(C(C)(C)C)c(O)c(C(C)(C)C)c2)CC1
    nt	-6.0
O=C1C=C(SCc2c(F)cccc2Cl)CC(c2ccccc2)C1 (configuration not stated)
    nt	0.1

Additional structures follow:
Every second line gives: LANA-nucl inh	Ab BasE inh
CCc1ccc(C(N)=S)cc1
    nt	-2.1
C=CCNC(=O)Cn1c(C(F)(F)F)nc2ccccc21
    -1.4	nt
O=C(Cc1ccsc1)OCc1csc(-c2ccccc2)n1
    nt	-1.4
CC(C)(C)c1cc(N/C(=N\S(=O)(=O)c2ccccc2)c2ccccc2)no1
    0.4	1.5
O=C(O)C1C2CCC(C2)C1C(=O)N1CCN(c2ncccn2)CC1 (configuration not stated)
    -0.34	1.9
CN1C(=O)c2oc3ccccc3c(=O)c2C1c1ccccc1 (configuration not stated)
    0.44	2.3
O=C(NCC1COc2ccccc2O1)c1ccc(S(=O)(=O)N2CCCCC2)cc1 (configuration not stated)
    nt	-2.0
CCNC(=O)c1ccc(C)c(S(=O)(=O)N2CCCC2)c1
    -1.3	1.3
c1ccc(OCC2CCNCC2)nc1
    -0.12	-1.2
O=C(CCc1nc2ccccc2c(=O)[nH]1)Nc1ccccc1C(=O)NC1CC1
    nt	0.3
CCOC(=O)c1cc(-c2ccc(S(=O)(=O)N(Cc3cccs3)C3CCCCC3)s2)on1
    0.5	1.4
CNc1nc(-c2ccc(O)cc2O)cs1
    nt	1.3
CC(C)Cn1c(SCC(=O)NCC(F)(F)F)nc2ccccc21
    nt	-5.7
COc1cc(NC(=O)[C@@H](NC(=O)c2cc(OC)cc(OC)c2)C(C)C)cc(OC)c1
    nt	0.3
Cc1ccn2c(=O)cc(CNCC(c3ccco3)N3CCCCC3)nc2c1 (configuration not stated)
    nt	1.5
CC(=O)Oc1ccc(C(=O)O)cc1OC(C)=O
    nt	2.4
O=C(NC1CCCc2ccccc21)c1cc2ccccc2o1 (configuration not stated)
    nt	1.0
COC(=O)c1ccc(COC(=O)c2oc3ccc(OC)cc3c2C)o1
    nt	-1.0
CCOC(=O)c1cnc2nc(CCc3ccccc3)[nH]n2c1=O
    -0.92	-0.1
O=C(Nc1cnc2sccn2c1=O)c1ccccc1
    1.9	-2.9
CSc1nc2nc(-c3cccc(C(F)(F)F)c3)ccn2n1
    0.29	nt
O=C(NCCc1ccccc1)c1ccc(=O)[nH]n1
    nt	2.3
Cc1ccc2c(=O)c(C(=O)c3ccccc3)cn(CC(N)=O)c2n1
    nt	0.5
COc1nnc(-c2ccccc2)c2ccccc12
    0.41	2.1
CCCCCCCCCCCCCCCC(=O)NCCO
    -0.81	0.6
CCN1CCC(NC(C)c2ccc(OC)cc2)CC1 (configuration not stated)
    0.48	-3.6
O=C(Nc1ccc(F)cc1)N1CCN(Cc2ccccc2)CC1
    -0.49	nt
CCOC(=O)C1=C(Cn2ccnc2)NC(=O)NC1c1ccc(OC(C)C)cc1 (configuration not stated)
    -0.23	0.5
O=C1NC(=O)c2ccc3c4c(ccc1c24)C(=O)N(c1ccccc1)C3=O
    0.085	2.2
O=C(NCCCn1ccnc1)c1cc(-c2cccs2)on1
    -1.2	0.0
Cc1cc(C(=O)COC(=O)c2ccc(S(=O)(=O)N(C)C)cc2)c(C)n1-c1ccc2c(c1)OCO2
    nt	1.2
CCc1ccc2nc(NC(=O)c3c(C)oc(-n4cccc4)c3C#N)sc2c1
    nt	0.3
FC(F)(F)c1cc(-c2ccccc2)nc2ncnn12
    -1	3.0
CC(Sc1nnc(-c2ccc3c(c2)OCO3)o1)C(N)=O (configuration not stated)
    0.44	3.2
CCN(Cc1cn2cccnc2n1)C1CCCCC1
    nt	0.5
COC(=O)CN1C(=S)N(c2ccccc2)C(=O)C1CC(=O)Nc1ccc(F)cc1 (configuration not stated)
    nt	0.5
CC(Oc1ccc(Br)cc1Cl)C(=O)NC(N)=O (configuration not stated)
    nt	-2.4
CC(=O)N1c2ccc(S(=O)(=O)NC(C(=O)Nc3nccs3)C(C)C)cc2CC1C (configuration not stated)
    -0.79	0.0
O=S(=O)(c1ccccc1)c1cccc(S(=O)(=O)N2CCCC2)c1
    -0.12	3.4
CC1=CC2=NC(=O)/C(=C\c3cccn3CCCOc3cc(C)cc(C)c3)C(=N)N2O1
    -0.39	1.5
CC1CCN(C(=O)CCNC(=O)c2ccccc2)CC1
    nt	-0.1
Cn1nccc1NS(=O)(=O)c1ccc(NS(=O)(=O)c2ccc(Cl)cc2)cc1
    nt	1.4
Cc1cc(NC(=O)COc2cc(C)c(Cl)c(C)c2)no1
    -0.84	-0.7
CCn1nnc2c(N3CCN(c4ccc(OC)cc4)CC3)ncnc21
    -0.62	-0.2
COc1cc2nc(CC(C)C)n(N)c(=O)c2cc1OC
    -0.31	0.9
C1CCC(Nc2nnnn2C2CCCCC2)CC1
    0.48	-0.9
O=C(O)CSc1c2c(nc3cc(C(=O)NCCN4CCOCC4)ccc13)CCC2
    0.092	1.2
c1ccc(Nc2cccc3nccnc23)cc1
    -1.2	-0.8
COc1ccc(N2CCN(CCCNC(=O)c3cccc(Nc4nc5ccccc5n5nnnc45)c3)CC2)cc1
    -0.28	2.1
Cc1cc(NC(=O)C(Cc2ccccc2)NS(=O)(=O)c2cccc3cccnc23)no1 (configuration not stated)
    -0.2	-2.5

Going on with the list:
Every second line gives: LANA-nucl inh	Ab BasE inh
Cc1ccc(C(CC(=O)N2CCCCC2)N2Cc3ccccc3C2=O)cc1 (configuration not stated)
    -0.96	-2.6
COc1ccc(OC)c(C(=O)CSC#N)c1
    -1.6	1.2
CCCCCCCCCCCCCC(=O)N[C@@H](C)[C@H](O)c1ccccc1
    0.15	-4.0
O=C(O)CCC(=O)Nc1ccc(COc2ccccc2)cc1
    0.068	1.2
COC(=O)c1cc(S(=O)(=O)NCC(C)c2ccccc2)cn1C (configuration not stated)
    0.42	-3.0
CC(=O)Oc1ccc(-c2cccc(C(=O)O)c2)cc1
    nt	2.9
O=C(CCSCc1cnn(-c2ccccc2)c1-n1cccc1)N1CCCCCC1
    0.36	-0.8

Compound activity from PubChem.
